Source: PubChem
Polio RdRp inh: inhibitors of poliovirus RNA polymerase binding and polymerization | P03300 | poliovirus polymerase elongation, fluorescence polarization; active compounds read low | % elongation, % (compound at 16.7 µg/mL) | 0.66% of 150,000 active | AID 588519; in the data active = % elongation below about 90%; note: some results filed as inactive read as strong as hits
Target sequence (P03300 1749-2209 limits assumed): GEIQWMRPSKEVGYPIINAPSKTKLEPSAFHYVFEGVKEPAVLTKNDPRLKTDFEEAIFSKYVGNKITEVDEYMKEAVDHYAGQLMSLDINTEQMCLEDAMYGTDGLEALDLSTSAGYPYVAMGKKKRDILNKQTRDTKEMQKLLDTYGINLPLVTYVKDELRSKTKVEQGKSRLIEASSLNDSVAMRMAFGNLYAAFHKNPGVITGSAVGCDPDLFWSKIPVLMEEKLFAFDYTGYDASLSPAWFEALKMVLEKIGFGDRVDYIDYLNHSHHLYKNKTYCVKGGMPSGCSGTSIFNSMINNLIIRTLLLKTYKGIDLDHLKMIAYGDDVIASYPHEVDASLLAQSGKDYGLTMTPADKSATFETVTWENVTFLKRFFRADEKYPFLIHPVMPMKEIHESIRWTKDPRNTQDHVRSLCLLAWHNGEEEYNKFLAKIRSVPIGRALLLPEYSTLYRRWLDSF
Polio RdRp inh intensity: recorded beside Polio RdRp inh, whose call it bears; % elongation; measured here: total intensity read-out; formula for this scale not given here;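 total fluorescence in place of polarization; lower means less elongation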
* hit, by the source's call. An excerpt (hit frequency here may not be typical).

Results follow in this order: Polio RdRp inh | Polio RdRp inh intensity
> CCOc1ccc2nc(N3CCN(C(=O)CS(=O)(=O)c4ccc(F)cc4)CC3)sc2c1
    103 | 108
> Cc1ccccc1NC(=O)C(=O)NCC1(c2ccccc2)CCCC1
    110 | 111
> CC(=O)Nc1ccc(NC(=O)c2ncoc2-c2ccco2)cc1
    101 | 104
> COc1ccc2c(C)c(CCC(=O)NCCc3ccccc3OC)c(=O)oc2c1
    106 | 114
> CCC(C)NC(=O)c1ccccc1NC(=O)CN1C(=O)c2cccc3cccc1c23 (centres undefined)
    106 | 110
> CCOc1cc(S(=O)(=O)n2ccnc2C(C)C)ccc1Cl
    111 | 107
> Cc1ccc(NS(=O)(=O)c2cnc(N)nc2)c(C)c1
    102 | 104
> COc1ccc(C)cc1Nc1nc2cc(Cl)c(Cl)cc2nc1-n1nc(C)cc1C
    101 | 105
> C=CCC(CC=C)(CNC(=O)C(=O)Nc1ccc(C)cc1)c1ccccc1
    107 | 111
> COc1cccc(NC(=O)CCN2C(=O)c3ccccc3Sc3ncccc32)c1
    110 | 101
> CCCCOc1ccc(S(=O)(=O)Nc2ccc(-c3ccc(N4CCC(C)CC4)nn3)cc2)cc1
    108 | 114
> COc1ccc(NC(=O)C2CCN(S(=O)(=O)c3cccc(-c4noc(C)n4)c3)CC2)cc1OC
    100 | 96
> Cc1ccc(CN2CCc3nc(N4CCN(C)CC4)ncc3C2)cc1
    104 | 108
> Cc1ccc(C)c(N2CCN(c3nc4ccccc4c4nc(-c5cccnc5)nn34)CC2)c1
    90 | 92
> Cc1ccc(CNC(=O)C2COc3ccccc3C2)cc1 (centres undefined)
    117 | 115
> O=C(Cn1c(=O)n(Cc2ccco2)c(=O)c2ccccc21)Nc1cccc(F)c1
    104 | 86
> Cc1ccc(NC(=O)CN2C(=O)C(c3ccc(F)cc3)=NC2(C)C)c(C)c1
    109 | 111
> Cc1cccc(C(=O)N2c3ncnn3C3(CCCCC3)[C@@H]3CCCC[C@@H]32)c1
    103 | 109
> CCN(CC)CCNC(=O)C1CCCN(c2nnc(C)c3c(C)n(-c4ccc(Cl)cc4)nc23)C1 (centres undefined)
    103 | 92
> COc1ccc(CCNS(=O)(=O)c2ccc(N3CCCCS3(=O)=O)cc2)cc1
    108 | 99
> Cc1cccc(C)c1NC(=O)C1CCN(S(=O)(=O)c2cccc3nsnc23)CC1
    106 | 110
> Cc1ccccc1NC(=O)c1c(NC(=O)Cc2ccccc2)sc2c1CCC2
    100 | 105
> CCc1ccc(CNC(=O)c2cc3cc4ccc(OC)cc4nc3o2)cc1
    110 | 110
> CCOC(=O)c1c(C)oc2nc(C)nc(NCCc3ccc(C)cc3)c12
    100 | 107
> COc1ccc(-n2nnnc2C2CCN(S(=O)(=O)c3ccc(F)cc3Cl)CC2)cc1
    113 | 115
> CCCCn1c2ccc(F)cc2c2nnc(SCCN3CCCCC3)nc21
    100 | 102
> COC(=O)c1cc(NC(=O)c2cnc(SC)nc2-c2ccccc2)cc(C(=O)OC)c1
    102 | 99
> Cc1cccc(OCCSc2nc3ccc(NC(=O)COc4ccccc4C)cc3s2)c1
    102 | 103
> CCC12CN3CC(C)(CN(C1)C3c1c(C)[nH]c3ccccc13)C2=O (centres undefined)
    111 | 107
> Cc1ccc(NC(=O)CSc2nc3c(oc4ccccc43)c(=O)n2Cc2ccco2)cc1F
    106 | 108
> Cc1ccccc1C(=O)Nc1sc2c(c1C(=O)N1CCC(C)CC1)CCCC2
    105 | 110
> CCOc1ccc(CN(C(=O)c2cc(=O)c3cc(Cl)ccc3o2)C2CCS(=O)(=O)C2)cc1 (centres undefined)
    123 | 130
> O=C(O)c1cccc(-n2cnc3cccnc32)c1
    104 | 117
> Cc1cc(C)cc(OCC(=O)N2CCC(c3nc4ccccc4o3)CC2)c1
    106 | 109
> CC(C)(C)OC(=O)N1CCC(c2c(C(=O)NC3CCCCC3)cnn2-c2cccc(F)c2)CC1
    103 | 97
> COc1ccccc1N1CCN(C(=O)C2CCN(S(=O)(=O)c3cn(C)cn3)CC2)CC1
    112 | 118
> CC(C)(C)C1CCc2c(sc(NC(=O)Cn3nnc(-c4cccc(C(F)(F)F)c4)n3)c2C#N)C1 (centres undefined)
    101 | 104
> Cc1ccc(C)c(NC(=O)c2cnn(-c3cccc(F)c3)c2C2CCN(C(=O)OC(C)(C)C)CC2)c1
    103 | 100
> CCOc1ccccc1C(=O)Nc1ccc2nc3c(c(Nc4ccc(OC)c(OC)c4)c2c1)CCCC3
    100 | 104
> COc1ccc(NS(=O)(=O)c2cc3[nH]c(=O)c(=O)[nH]c3cc2C)cc1Cl
    99 | 104
> O=C(Cn1c(=O)n(-c2ccccc2)c(=O)c2ccc(C(=O)NCc3ccc4c(c3)OCO4)cc21)Nc1ccc(F)c(Cl)c1
    99 | 101
> Cc1ccc(NC(=O)c2cc(S(=O)(=O)N3CCC4(CC3)OCCO4)ccc2F)cc1Cl
    102 | 101
> O=C(Nc1ccc(Br)cc1)N1CCC(CN2CCCC2)CC1
    109 | 102
> COc1ccc(-c2cc(C)no2)cc1S(=O)(=O)NC1CCC(C)CC1 (centres undefined)
    105 | 107
> Cc1ccc(CNC(=O)Cn2ncc3c(C)n(Cc4ccc(Cl)cc4)c(C)c3c2=O)cc1
    105 | 107
> COc1ccc(OC)c(Nc2ncnc3c2cnn3-c2cccc(Cl)c2)c1
    111 | 113
> COc1cccc(CNCCNC(=O)c2nonc2N)c1
    103 | 103
> Cc1ccc2c(=O)cc(C(=O)Nc3ccc(S(=O)(=O)N(C)c4ccccc4)cc3)oc2c1C
    101 | 103
> CCCN(Cc1cccs1)C(=O)Nc1cc(Cl)ccc1C
    113 | 113
> CCOC(=O)c1cccc(NC(=O)[C@H](CSCc2ccccc2)N2Cc3ccccc3C2=O)c1
    107 | 108
> Cc1ccc(C)c(N2CCN(c3nc4ccccc4n4nnnc34)CC2)c1
    100 | 162
> CC(=O)N1CCc2c(sc3nc(SCC(N)=O)n(-c4ccc(F)c(Cl)c4)c(=O)c23)C1
    102 | 108
> COc1ccc(CNC(=O)Cn2c(=O)c3cccn3c3cccnc32)cc1
    111 | 102
> CCc1ccccc1Nc1nn2c(=O)c3ccc(C(=O)NC4CCCCC4)cc3nc2s1
    106 | 110
> COc1ccc(CCNC(=O)CCS(=O)(=O)c2cc3c(cc2Cl)NC(=O)CO3)cc1OC
    101 | 105
> O=C1CCc2cc(S(=O)(=O)NCc3ccc(Cl)cc3)cc3c2N1CC3
    109 | 110
> CCOc1ccccc1CNC(=O)c1cc(-c2ccc(Cl)s2)nc2ccccc12
    107 | 111
> Cc1cccc(CSc2ncc(Cl)c(C(=O)Nc3sc4c(c3C(N)=O)CCCC4)n2)c1
    107 | 104
> COc1ccc(C)cc1NC(=O)Cn1c(=O)nc(-c2ccccc2F)c2cc(Cl)ccc21
    102 | 106
> Cc1ccc2nc(CSc3nnc(NC(=O)c4cccc(Br)c4)s3)cc(=O)n2c1
    111 | 109

(more compounds)
Results follow in this order: Polio RdRp inh | Polio RdRp inh intensity
> O=c1c2c3c(sc2nnn1Cc1ccc(Br)cc1)CCCC3
    105 | 106
> CCOc1ccccc1C(=O)Nc1cccc(-c2nc3ccccc3s2)c1
    103 | 101
> Cc1ccc(Cl)cc1NC(=O)CCS(=O)(=O)c1ccc(Br)s1
    103 | 106
> CCOC(=O)c1c(C)[nH]c(CCC(=O)Nc2ccccc2OCC)c1C
    114 | 118
> O=C(NCc1ccc(F)cc1)C1(c2cccs2)CCOCC1
    101 | 97
> COc1cc(C(=O)NCC(c2ccc3c(c2)OCO3)N2CCN(C)CC2)cc(OC)c1OC (centres undefined)
    110 | 102
> COC(=O)c1nnn(CC(=O)Nc2cc(F)ccc2F)c1C(=O)OC
    116 | 112
> Cc1nn(CCCC(=O)NCc2ccccc2)c(=O)c2nn(-c3ccccc3)c(C)c12
    110 | 112
> COCCN1Cc2cccc(C(=O)Nc3ccc(C)c(F)c3)c2C1=O
    103 | 105
> COCCNC(=O)CCCn1c(SCC(=O)c2ccc(Br)cc2)nc2c(sc3ccccc32)c1=O
    103 | 104
> Cc1ccc2cc3cc(C(=O)N4CCN(c5cccc(C(F)(F)F)c5)CC4)sc3nc2c1
    113 | 116
> Cc1ccc2[nH]c(CSc3nnc(NC(=O)COc4ccccc4C)s3)cc(=O)c2c1
    98 | 95
> CCCCc1nn2c(=O)cc(CN(CC)c3ccccc3)nc2s1
    101 | 105
> Cc1ccc(NC(=O)NCC2CCN(Cc3cccc(Cl)c3)CC2)cc1Cl
    107 | 108
> CC1CCN(C(=O)CCS(=O)(=O)c2cc3c(cc2Cl)NC(=O)CO3)CC1
    109 | 100
> O=C(NCCc1ccccc1)c1ccc2c(c1)nc1n2CCOC1
    106 | 102
> COc1ccc(-n2c(SCC(=O)NCc3ccccc3)nc3ccsc3c2=O)cc1
    100 | 108
> O=C(NCc1ccccc1F)c1ccc(CSc2nc3cccnc3n2Cc2ccccc2)cc1
    115 | 114
> CCS(=O)(=O)NCCc1sc2nc(-c3ccc(OC)cc3)nn2c1C
    109 | 108
> CCN1CCN(c2ncnc3c2cnn3-c2ccc(C)c(Cl)c2)CC1
    101 | 96
> COc1ccc(-n2c(=O)c3c4c(sc3n(Cc3ccccc3Cl)c2=O)CCC4)c(OC)c1
    109 | 111
> CCOc1ccc(-c2nnc(SCC(=O)NCCC(C)C)nc2-c2ccc(OCC)c(OC)c2)cc1OC
    102 | 105
> O=C(Cc1ccccc1)Nc1cccc(-c2nc3cccnc3s2)c1
    103 | 110
> O=C(O)c1ccc(NS(=O)(=O)c2ccc(Cl)c(C(=O)Nc3ccccc3)c2)cc1
    105 | 111
> CCOC(=O)Cn1c(=O)n(-c2cccc(Cl)c2)c2nc(-c3ccccc3Cl)nc(C(N)=O)c21
    104 | 109
> Cc1ccc(NC(=O)CSc2nc(-c3ccco3)cc(C(F)(F)F)n2)c(C)c1
    107 | 112
> CCCN1C(=O)C(O)(CC(=O)c2ccc(CC)cc2)c2ccccc21 (centres undefined)
    105 | 106
> O=C(CSc1nc(-c2ccco2)nc2cc(=O)[nH]n12)Nc1ccccc1F
    102 | 108
> CCn1c(CN2CCOCC2)nc2cc(NC(=O)c3cc(OC)c(OC)c(OC)c3)ccc21
    105 | 106
> COc1cccc(CCNC(=O)c2cnc3sc(N4CCOCC4)nn3c2=O)c1
    112 | 105

Random excerpt: 2 records from the list, in no set order.
Results follow in this order: Polio RdRp inh | Polio RdRp inh intensity
> COCCNC(=O)CCCn1c(SCC(=O)c2ccc(Br)cc2)nc2c(sc3ccccc32)c1=O
    103 | 104
> COC(=O)c1nnn(CC(=O)Nc2cc(F)ccc2F)c1C(=O)OC
    116 | 112

Arranged by length of the SMILES (largest number first): some entries from above.
Results follow in this order: Polio RdRp inh | Polio RdRp inh intensity
> CCOc1ccc(-c2nnc(SCC(=O)NCCC(C)C)nc2-c2ccc(OCC)c(OC)c2)cc1OC
    102 | 105
> COc1ccc(-n2c(SCC(=O)NCc3ccccc3)nc3ccsc3c2=O)cc1
    100 | 108
> Cc1ccc(NC(=O)NCC2CCN(Cc3cccc(Cl)c3)CC2)cc1Cl
    107 | 108
> CCS(=O)(=O)NCCc1sc2nc(-c3ccc(OC)cc3)nn2c1C
    109 | 108
> O=C(NCCc1ccccc1)c1ccc2c(c1)nc1n2CCOC1
    106 | 102

The listing continues.
Results follow in this order: Polio RdRp inh | Polio RdRp inh intensity
> CCOC(=O)c1cc(-c2ccccc2)n(-c2cccc(C(=O)Nc3cccc(SC)c3)c2)c1C
    104 | 102
> COc1ccc(-c2cc(C(F)(F)F)c(C#N)c(SCC(=O)Nc3ccccc3F)n2)cc1
    107 | 113
> Cc1ccc(-c2ccc(CCC(=O)O)n2-c2ccc(C(C)C)cc2)cc1
    111 | 117
> Cc1cccc(NC(=O)C(=O)NCC(c2cccnc2)N2CCc3ccccc32)c1C (centres undefined)
    106 | 104
> Cn1c(=NC(=O)c2ccc(S(=O)(=O)N3CCCc4ccccc43)cc2)sc2cc(F)ccc21
    100 | 103
> Cc1cccc(NC(=O)Cn2c(=O)n(Cc3ccccc3)c(=O)c3oc4ccccc4c32)c1C
    108 | 115
> CCOC(=O)c1cc(-c2ccccc2)nn1Cc1ccccc1
    112 | 110
> CCCC(=O)N(c1ccc2oc3c(c2c1)CCCC3)S(=O)(=O)c1cc(C)ccc1C
    99 | 104
> CCc1ccccc1NC(=O)Cn1ncc2c(C)n(Cc3ccccc3F)c(C)c2c1=O
    109 | 112
> COc1cccc(CNC(=O)C2CCN(c3nc4ccc(Cl)cc4[nH]3)CC2)c1
    108 | 116
> Cc1c(-c2nc(-c3ccccc3)no2)nnn1-c1ccc(F)c(Cl)c1
    81* | 84*
> Cn1c(-n2cccc2)c(-c2c(-c3ccccc3)[nH]c3c2c(=O)n(C)c(=O)n3C)c(=O)n(C)c1=O
    102 | 96
> CN(C)CCn1c2c(c(SCC(=O)Nc3ccc(F)cc3F)nc1=O)CCC2
    111 | 114
> CCc1ccc(S(=O)(=O)Nc2cc3c(cc2C)n(C)c(=O)c(=O)n3C)cc1
    104 | 106
> CCc1cccc(C)c1NC(=O)C(CC)n1ncn2c(cc3cc(C)ccc32)c1=O (centres undefined)
    108 | 111
> COc1cccc(N2CCN(S(=O)(=O)c3ccc4c(c3)CCCN4C(C)=O)CC2)c1
    110 | 112
> CCc1ccc(NC(=O)CSC2=Nc3ccccc3C3=NC(CCC(=O)NCCc4ccccc4)C(=O)N23)cc1 (centres undefined)
    104 | 110
> Cc1ccc2c(c1)c(=O)c1ccccc1n2CCCC(=O)Nc1c(F)cccc1F
    103 | 108
> CCc1ccccc1N(C)C(=O)c1ccc2c(=O)n3c(nc2c1)CCCCC3
    101 | 104
> CC1=C(c2ccc(C(C)C)cc2)S(=O)(=O)NC1=NCc1ccccc1C
    104 | 112
> Cc1ccc2oc(-c3ccc(NC(=O)CCC(=O)O)cc3)nc2c1
    108 | 111
> CC1Cc2cc(S(=O)(=O)CCC(=O)NCc3ccccc3Cl)ccc2N1C(=O)C1CC1 (centres undefined)
    109 | 103
> Cc1cc(C)cc(Nc2nc3ccccc3nc2-n2nc(C)cc2C)c1
    102 | 103
> COc1ccc(CNC(=O)Cc2c(C)c3ccc(O)cc3oc2=O)cc1
    102 | 105
> COc1ccc(-c2nc(CSc3nnc(C)n4c3cc3sccc34)c(C)o2)cc1
    99 | 95
> COc1ccc(-c2cnc(C)o2)cc1S(=O)(=O)Nc1cccc(C(F)(F)F)c1
    109 | 112
